Compound activity (PubChem)
Mtb H37Rv – Mycobacterium tuberculosis H37Rv growth inhibition, cell based, confirmatory dose response (AID 1949) | inhibition, % at 10 µg/mL; hits with a dose series show IC50 in µg/mL | actives 1.6% (n = 100,000) | most inactive calls were filed without a number and no value below 0 was filed;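 active = confirmed in a dose series; inconclusive = about 50% or more but not retested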;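 note: bacteria grown 7 days with compound before Alamar blue readout; 0% = untreated bacteria and 100% = reference antibiotic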
* = called active by the depositor; i = inactive; ? = inconclusive. Not all compounds are listed. The share of hits here may be higher or lower than overall.

Start of the data: the first 5 records (preview)
| smiles | Mtb H37Rv |
| --- | --- |
| O=C(C1CCC(C(=O)N2CCCC2)CC1)N1CCCC1 (stereo unspecified) | i |
| COc1ccc(NC(=O)COc2ccccc2)cc1OC | i |
| N/C(=N\OC(=O)c1cc(-c2ccccc2)nc2ccccc12)c1ccccn1 | ? |
| COc1ccc(-c2noc(COc3ccc(C)cc3)n2)cc1 | 14.2% |
| CCOC(=O)N1CCN(c2nnc(-c3ccc(C)cc3)c3ccccc23)CC1 | 36.9% |

The list itself (from the top)
| smiles | Mtb H37Rv |
| --- | --- |
| O=C(C1CCC(C(=O)N2CCCC2)CC1)N1CCCC1 (stereo unspecified) | i |
| COc1ccc(NC(=O)COc2ccccc2)cc1OC | i |
| N/C(=N\OC(=O)c1cc(-c2ccccc2)nc2ccccc12)c1ccccn1 | ? |
| COc1ccc(-c2noc(COc3ccc(C)cc3)n2)cc1 | 14.2% |
| CCOC(=O)N1CCN(c2nnc(-c3ccc(C)cc3)c3ccccc23)CC1 | 36.9% |
| COC(=O)CN1C(=O)CN(c2nc(C)cc(C)n2)C1=O | i |
| CN(C)c1ccc(CNC(C)(C)CO)cc1 | 0.0% |
| CC(C)CC(=O)Nc1nnc(CC(C)(C)C)s1 | i |
| O=C(CCC1CCCCC1)NCc1cccs1 | i |
| COc1ccc(C)cc1S(=O)(=O)N1CCC(C(=O)NCCC2=CCCCC2)CC1 | i |
| COC(=O)C1CCN(S(C)(=O)=O)CC1 | 1.6% |
| CC12CCC(C(=O)NCCCn3ccnc3)(OC1=O)C2(C)C (stereo unspecified) | i |
| CC1CCCCN1C(=O)c1ccccc1NS(=O)(=O)c1cccc([N+](=O)[O-])c1 (stereo unspecified) | i |
| CCOc1ccc(C(=O)Nc2ccc(C)c(C)c2)cc1OCC | i |
| COC(=O)c1ccc(-n2nnnc2SC)cc1 | i |
| Cc1ccccc1CSCCNC(=O)CN(c1cccc(Cl)c1Cl)S(C)(=O)=O | i |
| COc1ccc(C2(C(=O)N3CCCCC3)CCOCC2)cc1 | i |
| CS(=O)(=O)NCCSCc1c(F)cccc1Cl | 1.7% |
| CCOC(=O)c1c(-c2cccs2)csc1NC(=O)C(C)Oc1ccccc1 (stereo unspecified) | i |
| Oc1ccccc1-c1nc(/C=C/c2c[nH]c3ccccc23)no1 | i |
| Cc1ccc(N2C(=O)CC(Sc3nnc(N)s3)C2=O)cc1 (stereo unspecified) | i |
| COc1ccc(-c2c(C#N)c(N)nc(SCC(=O)Nc3ccccc3C)c2C#N)cc1OC | i |
| CC1=NN(c2nc(C)cc(C)n2)C(=O)C1Cc1ccccc1 (stereo unspecified) | 0.8% |
| COC(=O)c1c(NC(=O)c2ccc(Cl)cc2)sc2c1C(C(=O)OC)CC2 (stereo unspecified) | i |
| CCOC(=O)N1CCN(C(=S)Nc2cc(OC)cc(OC)c2)CC1 | i |
| O=C(c1ccc(S(=O)(=O)N2CCCC2)cc1)N1CCCc2ccccc21 | i |
| CN(CCCOc1ccccc1-c1ccccc1)Cc1ccccc1 | i |
| Cn1c(CSCc2ccc(F)cc2)nnc1SCC(=O)NCc1ccccc1 | 0.5% |
| COc1cccc(OCC(O)Cn2nc(C)c(Br)c2C)c1 (stereo unspecified) | 12.1% |
| CS(=O)(=O)N(Cc1ccc(C(=O)Nc2ccc(F)c(Cl)c2)cc1)c1ccccc1 | i |
| O=C(Nc1ccc(Oc2ccccc2)cc1)Nc1ccc(F)cc1F | 1.7% |
| CC(C)(C)c1ccc(/C=C/c2[nH]c(=O)[nH]c(=O)c2[N+](=O)[O-])cc1 | i |
| CCCCOc1ccc(NC(=O)CCCOc2ccccc2)cc1 | 31.1% |
| Cc1cc(C(F)F)n2ncc(C(=O)NCc3ccc(Cl)cc3)c2n1 | i |
| CCOC(=O)c1c(NC(=S)NC(C)C2CCCO2)sc2c1CCCC2 (stereo unspecified) | 18.9% |
| Cc1ccc(/C=C(/C#N)c2nc3ccccc3[nH]2)cc1Br | i |
| COC(=O)c1ccc(CNC(=O)C(=O)Nc2ccc(F)cc2)cc1 | i |
| COC(=O)C1=CN(C2CCCC2)C=C(C(=O)OC)C1c1cc(Cl)c(O)c(OC)c1 | i |
| COc1ccc(NC(=O)c2cn(-c3ccccc3)nc2-c2ccc(F)cc2)cc1 | i |
| O=C(Cn1nnc(-c2cccc(C(F)(F)F)c2)n1)NC1CCCC1 | i |
| Cc1nc2ccccc2n1CC(O)Cn1c2ccccc2c2ccccc21 (stereo unspecified) | i |
| COc1cccc(NS(=O)(=O)c2ccccc2F)c1 | i |
| CCCCC(=O)NC(=S)NNC(=O)c1ccc(Cl)cc1Cl | ? |
| COc1ccccc1-n1c(=O)oc2ccc(Cl)cc2c1=O | 4.95µg/mL* |
| COc1cc(/C=C2/C(=O)NC(=O)N(c3ccc(C)cc3)C2=O)cc(Br)c1O | i |
| CC(C(=O)Nc1cccc(F)c1)N(c1ccccc1)S(C)(=O)=O (stereo unspecified) | i |
| Cc1cc(C)cc(NC(=O)COc2cc3oc(=O)c(C)c(C)c3cc2Cl)c1 | 1.2% |
| O=C(Nc1ccccc1)c1c(NC(=O)C2CC2)sc2c1CCCC2 | 20.0% |
| CS(=O)(=O)N(CC(=O)N1CCCCCC1)c1cccc(F)c1 | 1.1% |
| COC(=O)c1ccc(NC(=O)CSc2nnc(-c3ccc(Cl)cc3Cl)o2)cc1 | i |
| Cc1ccccc1-c1nnc(SCC(=O)Nc2cccc([N+](=O)[O-])c2)o1 | i |
| C=CCc1ccccc1OCCCCn1ccnc1 | 3.93µg/mL* |
| COc1ccc(C(NC(=O)c2ccccc2C)c2ccccc2)cc1 (stereo unspecified) | i |
| CC1C(N2CCOCC2)[N+]([O-])=C2CCc3nonc3C21O (stereo unspecified) | i |
| O=C(NC(=S)Nc1ccc2oc(-c3ccccc3)nc2c1)c1ccc2c(c1)OCO2 | 0.9% |
| CCOC(=O)c1c(-c2cccs2)csc1NC(=O)COc1ccccc1 | i |
| Cc1cc(Cl)ccc1N(CC(=O)NCCC1=CCCCC1)S(C)(=O)=O | 1.9% |
| COC(=O)c1cc(OC)c(OC)cc1NC(=S)Nc1cccc(C(C)=O)c1 | i |
| O=C(O)c1ccc(Nc2nc(-c3ccc(O)cc3O)cs2)cc1O | ? |
| O=C(c1ccco1)N1N=C(c2c(-c3ccccc3)c3cc(Cl)ccc3[nH]c2=O)CC1c1ccco1 (stereo unspecified) | 17.5% |

A second format for some results above.
> COc1ccc(C(NC(=O)c2ccccc2C)c2ccccc2)cc1 (stereo unspecified)
  Mtb H37Rv: i

> COC(=O)c1ccc(NC(=O)CSc2nnc(-c3ccc(Cl)cc3Cl)o2)cc1
  Mtb H37Rv: i

> O=C(c1ccco1)N1N=C(c2c(-c3ccccc3)c3cc(Cl)ccc3[nH]c2=O)CC1c1ccco1 (stereo unspecified)
  Mtb H37Rv: 17.5%

> COC(=O)c1cc(OC)c(OC)cc1NC(=S)Nc1cccc(C(C)=O)c1
  Mtb H37Rv: i

Next compounds:
smiles	Mtb H37Rv
COC(=O)C1=C(C)NC2=C(C(=O)CC(c3ccccc3OC)C2)C1c1coc2ccccc2c1=O (stereo unspecified)	3.5%
Cc1cc(C)nc(NC(=O)c2ccccc2I)n1	i
COc1ccccc1NC(=O)CC1S/C(=N\N=C(/C)c2ccccc2)NC1=O (stereo unspecified)	i
CCOC(=O)C1C2C=CC3(CN(c4ccccc4)C(=O)C13)O2 (stereo unspecified)	i
CCC(=O)Nc1ccc(C(=O)NCc2ccc(OC)cc2)cc1	11.6%
Cc1cc(=O)[nH]c(SCCOCCSc2ccc(Cl)cc2)n1	0.5%
COc1ccc(CNc2ncnc(N)n2)cc1	i
CCN(CC)S(=O)(=O)c1csc(C(=O)Nc2ccc(C)cc2)c1	i
O=C(Cc1ccccc1Cl)NCCCn1ccnc1	i
CCOC(=O)N1CCN(C(=O)c2cnsn2)CC1	i
CCOC(=O)c1cc(-c2ccccc2)sc1NC(=O)c1ccc2c(c1)OCCO2	i
CCNC(=S)NCCc1ccc(OC)c(OC)c1	i
O=C(Nc1ccc(N2CCOCC2)c(Cl)c1)c1ccc(-c2ccc(Cl)cc2Cl)o1	36.9%
Cc1ccc(C)c(OCC(=O)Nc2ccccc2C(F)(F)F)c1C	0.0%
CCc1cccc(NC(=O)CCC(=O)Nc2cccc(CC)c2)c1	i
Cc1ccc2oc(-c3cccc(NC(=O)Cc4ccccc4)c3)nc2c1	i
NC1=C2C(=O)Nc3ccccc3C2c2nc(C(F)(F)F)cnc2O1 (stereo unspecified)	3.1%
CCn1cc(C(=O)OCC(=O)Nc2cccc(C(F)(F)F)c2)c(=O)c2ccc(C)nc21	i
O=C(NCc1ccco1)c1cncc(Br)c1	i
C=CCN(CC=C)Cc1c(C)[nH]c2c(C)c(C)ccc2c1=O	i

Molecules listed so far that have a furan ring, fused or not, in the order listed:
smiles	Mtb H37Rv
O=C(c1ccco1)N1N=C(c2c(-c3ccccc3)c3cc(Cl)ccc3[nH]c2=O)CC1c1ccco1 (stereo unspecified)	17.5%
O=C(Nc1ccc(N2CCOCC2)c(Cl)c1)c1ccc(-c2ccc(Cl)cc2Cl)o1	36.9%
O=C(NCc1ccco1)c1cncc(Br)c1	i

Further structures follow.
smiles	Mtb H37Rv
C=CCn1c(SCC(=O)Nc2ccc(C(=O)OCC)cc2)nnc1-c1ccccc1O	i
CC(=O)Nc1ccc(OC(F)(F)Cl)cc1	i
COc1ccccc1-c1cn(S(=O)(=O)c2ccc(C3CCCCC3)cc2)nc1N	i
Cc1nn2cc(-c3ccccc3)cc2c2c(C)n(C)c(C)c12	0.4%
CCOC(=O)C1=C(C)N(c2ccccc2)C2(SC(C(C)=O)=NN2c2ccc(OC)cc2)S1 (stereo unspecified)	1.1%
Cc1cc(C)cc(C(=O)NC(=S)Nc2ccc(Cc3ccncc3)cc2)c1	i
O=C(Nc1nc(-c2ccccc2)cs1)c1ccc(S(=O)(=O)NCC2CCCO2)cc1 (stereo unspecified)	3.8%
COc1ccc(CCCC(=O)Nc2ccc([N+](=O)[O-])cc2)cc1C	46.5%
CC(=O)c1ccccc1OCC(O)CN1CCN(Cc2ccccc2)CC1 (stereo unspecified)	i
COc1ccccc1-c1noc(CCC(=O)Nc2ccccc2C(F)(F)F)n1	i
O=C(NC(=S)Nc1ccc(Cl)c(C(=O)O)c1)c1ccc(-c2ccc(Br)cc2)o1	3.7%
Cc1ccc(/C=C/c2nc(-c3ccccc3O)n(-c3ccccc3)n2)o1	18.9%
O=C1CC(N2CCN(c3ccc(F)cc3)CC2)C(=O)N1c1ccc(F)c(Cl)c1 (stereo unspecified)	0.8%
O=C(NNC(=O)c1ccccc1I)NC1CCCCC1	1.7%
Cc1cc(=O)oc2cc(NC(=S)Nc3cccc(C(=O)O)c3)ccc12	i
N#Cc1c(NC(=S)NC(=O)C2CCCC2)sc2c1CCCC2	28.4µg/mL*
Cc1ccccc1C(=O)NCCCn1ccnc1	i
O=C(NCc1ccccn1)Nc1ccccc1C(F)(F)F	i
COc1ccc(Cl)cc1NC(=S)N1CCCC1	i
O=C(Nc1cccc(Br)c1)c1cnsn1	i
C=CCNC(=S)NNC(=O)C(O)c1ccccc1 (stereo unspecified)	i
Cc1ccc(C(=O)CCC(=O)Nc2cccc(C(F)(F)F)c2)cc1C	i
COc1ccc(Br)cc1CN(CCCN(C)C)CCCN(C)C	0.0%
Cc1ccccc1NC(=O)CSc1nnc(C23CC4CC(CC(C4)C2)C3)o1	i
CCOc1ccc(NCC(=O)c2ccc(Br)cc2)cc1	12.8%
COc1ccc([N+](=O)[O-])cc1NC(=O)CN(c1ccc(C)cc1)S(=O)(=O)c1ccc(OC)c(OC)c1	i
Cn1c(SCC(=O)c2ccc(Br)cc2)nnc1-c1ccco1	i
CC(C)(C)C(=O)NC(=S)Nc1cccc([N+](=O)[O-])c1	i
CCc1nnc(NC(=O)CSc2nc3ccccc3s2)s1	i
O=C(COc1ccc(Cl)cc1Cl)NC(=S)Nc1c(Cl)cc(Cl)cc1Cl	i
O=C(NC1CCCCC1)c1ccc(COc2cccc3ccccc23)o1	4.65µg/mL*
CC(C)OCCCNC(=O)C1CC(=O)N(c2ccc(F)cc2)C1 (stereo unspecified)	2.1%
O=C(NC(=S)Nc1ncccn1)c1ccccc1Br	5.8%
CCOC(=O)C(=O)Nc1cccc(C(=O)OCC)c1	1.2%
Cc1ccc(S(=O)(=O)N(C)c2ccc(C(=O)Nc3ccccc3C(=O)N3CCCC3)cc2)cc1	i
COc1ccccc1CC(=O)NCc1ccccc1Cl	3.1%
COc1ccccc1C(=O)Oc1ccc(C(=O)Nc2ccc(C)cc2)cc1	i
O=S1(=O)N=C(Nc2ccc(S(=O)(=O)N3CCCCC3)cc2)c2ccccc21	i
COc1ccc(S(=O)(=O)N(C)CC(=O)N2CCCCC2)cc1OC	i
C/C=C/c1ccc(OCCCCOc2ccc(F)cc2)c(OC)c1	2.7%
CC(C)Oc1ccc(C(CCN)C(C)C)cc1 (stereo unspecified)	i
O=C(Nc1ccc(I)cc1C(=O)NCc1cccnc1)c1ccc(Cl)cc1Cl	?
Cn1c(=O)c2c(nc(NCc3cccnc3)n2Cc2ccc(Cl)cc2Cl)n(C)c1=O	i
C=C(C)Cn1c(SCC(=O)c2ccccc2)nc2ccc(I)cc2c1=O	i
Clc1ccccc1OCCn1ccnc1	i
COc1ccc(S(=O)(=O)N(CC(=O)NCCSCc2ccco2)c2cccc(Cl)c2)cc1	i
Cc1cc(C)c(C#N)c(SCC(=O)N2CCCCC2)n1	i
O=S(=O)(NCc1ccco1)c1cccc2nsnc12	0.4%
CCOC(=O)c1c(-c2ccccc2)csc1NC(=S)NC(=O)N(C)C	?
C=C1CN=C(N(C(C)=O)c2ccccn2)S1	52.6%
COc1ccccc1N1C(=O)c2cccc3cc([N+](=O)[O-])cc(c23)C1=O	0.16µg/mL*
OC1(c2ccc3ccccc3c2)CCN(Cc2ccccc2)C1 (stereo unspecified)	4.9%
Nc1nc(NC(=O)c2ccc(Cl)cc2)nn1-c1ccccc1	i
Cc1ccc(C(=O)NC(=S)NCc2cccnc2)cc1C	i
C=C(C)CC1N(c2ccccc2F)C(=O)C2C(C(=O)O)C3C=CC21O3 (stereo unspecified)	0.7%
Cc1ccc(-c2noc(-c3ccccc3I)n2)cc1	2.1%
C=C(C)c1cccc(C(C)(C)NC(=O)N2CCOCC2)c1	i
Cc1ccccc1NS(=O)(=O)c1ccc(C2CNC(=O)C2)cc1 (stereo unspecified)	i
